Source: PubChem (several laboratories)
MT1-MMP act inh – blockers of MT1-MMP proenzyme processing, primary screen, HT1080 RFP-PRO-GFP cells, GFP/RFP fluorescence; Matrix metalloproteinase-14 (Homo sapiens), P50281; GFP/RFP ratio fluorescence, overnight; percent of plate control window, DMSO zero; GFP/RFP ratio change, % at 20 µM; actives 0.061% (n = 360,000); AID 651647, 2012;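 active = GFP/RFP ratio change of at least 30% with cell ATP level not reduced by more than half and red fluorescence within 50% of control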; also: strong numbers were not always called active
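Material: RFP-PRO-GFP reporter HT1080 cells. Dosing: single-point 20 µM compound, 1% DMSO. Controls: DMSO and RFP-L50D-GFP cell wells. Timing: cells overnight before dosing, compound overnight, 37 °C, 5% CO2. Measure: GFP/RFP fluorescence ratio.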
Env fusion inh – inhibitors of HIV-1 Env-driven cell-cell fusion, primary screen, HeLa-JRFL effector, CEM21 target cells, luciferase | actives 1.1% (n = 360,000) | AID 651610, 2012 | inhibition, % at 12.3 µM;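 active = mean replicate inhibition score of at least 50 and every replicate individually at or above 50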;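 also: 0% = plate neutral controls and 100% = maraviroc near 300 nM; one replicate is shown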
Rce1 inhib – yeast Rce1p protease inhibitors, primary screen, biochemical, fluorescence, cell-free homogeneous; CAAX prenyl protease 2 (Saccharomyces cerevisiae (strain ATCC 204508 / S288c)), Q03530; yeast membranes, quenched prenylated peptide cleavage fluorescence; calls only; actives 0.27% (n = 290,000); AID 2563, 2010;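 active = fall in fluorescence gain of 50% or more versus controls, with final raw signal at or below 3038400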;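 also: plate controls were neutral control wells for no effect and wells lacking membranes for full effect; tested at 10 µM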
Target sequence (Q03530 whole entry, looked up): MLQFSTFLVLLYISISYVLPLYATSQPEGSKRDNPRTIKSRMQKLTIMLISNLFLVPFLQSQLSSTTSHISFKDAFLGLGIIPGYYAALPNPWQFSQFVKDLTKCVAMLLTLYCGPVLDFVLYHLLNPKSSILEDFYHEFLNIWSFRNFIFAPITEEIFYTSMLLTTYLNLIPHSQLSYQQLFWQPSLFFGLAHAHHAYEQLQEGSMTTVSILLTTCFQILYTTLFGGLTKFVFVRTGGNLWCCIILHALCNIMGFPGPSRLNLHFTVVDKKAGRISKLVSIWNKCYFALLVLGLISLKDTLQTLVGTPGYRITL
eIF4H inh – human eIF4H binding inhibitors, primary screen, translation initiation inhibitor project, biochemical, uHTS, fluorescence polarization; Eukaryotic translation initiation factor 4H (Homo sapiens), Q15056; eIF4H fluorescence polarization binding assay; inhibition, % at 35 µM; actives 0.94% (n = 290,000);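 active = 50% or more with normal probe brightness, or confirmed in later tests; about a fifth of its hits are not listed in these tables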;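 also: calls also rest on retests at 20 µM and on dose response follow-up; 0% = protein and probe with vehicle and 100% = probe without protein; strong numbers were not always called active; many hits fall short of the cut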
CSC inhib – cancer stem cell viability inhibitors, primary screen, luminescence; cancer stem cell-like cells viability; inhibition, % at 7.5 µM; actives 1.1% (n = 300,000);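 active = mean at 75% or more and at least half the replicates too; tested in HMLE shEcad cells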;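 also: 0% = median of negative and 100% = median of positive control wells; the first replicate is given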
PABP polyA inh – PABP poly(A) RNA binding inhibitors, primary screen, biochemical, fluorescence polarization, uHTS; actives 1% (n = 290,000); inhibition, % at 35 µM; Polyadenylate-binding protein 1 (Homo sapiens), P11940;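 active = 50% or more with normal probe brightness, or confirmed in later tests; about a fifth of its hits are not listed in these tables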;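 also: calls also rest on retests at 20 µM and on dose response follow-up; controls were probe without protein and protein plus probe with vehicle; some compounds called inactive have numbers as strong as hits; many hits fall short of the cut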
Yeast UUG start – modulators of yeast start codon fidelity, primary screen, whole organism, S. cerevisiae, single point, plate reader; S. cerevisiae UUG-firefly luciferase reporter, luminescence/redox ratio; activity score, % at 18.7 µM; actives 0.13% (n = 350,000); AID 602363, 2012;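 active = replicate mean at a twofold rise or more, about +100% in these data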;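 also: firefly luciferase made from a UUG start codon reports start codon fidelity; reporter light over untreated wells divided by growth signal over untreated wells; some hits fall short of that in this replicate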
eIF4H inh retest – second read-out of eIF4H inh, no call of its own (marks repeat the call); inhibition, %; compound at 20 µM; confirmation average;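 mean of two retest wells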
PABP polyA inh retest – also measured in PABP polyA inh; calls as there; inhibition, %; compound at 20 µM; confirmation repeats;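 mean of two retest wells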
MT1-MMP act inh RFP – second read-out of MT1-MMP act inh, no call of its own (marks repeat the call); RFP signal change, %; measured here: RFP expression control read;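 0 = vehicle wells; hits needed this value within 50% of zero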
Numbers without * were called inactive; i = inactive; . = no result given.

SMILES	MT1-MMP act inh	MT1-MMP act inh RFP	Env fusion inh	Rce1 inhib	eIF4H inh	CSC inhib	PABP polyA inh	Yeast UUG start	others
Cc1ccc(S(=O)(=O)N2CCOCC2)cc1C(=O)NCCCn1ccnc1	0	-1	-16	i	0	-8	8	-9
CCn1c(=N)n(CC(=O)c2ccc(Br)s2)c2ccccc21	-3	-2	20	i	-11	11	5	-8
COc1ccc(NC(=O)CCn2c(=S)[nH]c3ccccc3c2=O)cc1	3	-2	-3	i	-11	1	0	-27
Cc1ccc(S(=O)(=O)N(C)/N=C/c2ccc(C(=O)O)cc2)cc1	-1	4	9	i	14	-6	-3	-34
Cc1cc[n+](CC(=O)c2ccccc2)c2ccccc12	6	9	7	i	16	-2	9	.
Cc1cc(/C=C2\NC(=O)NC2=O)c(C)n1-c1cccnc1	1	3	5	.	0	-3	-4	-13
O=C(NCc1ccc(Cl)c(Cl)c1)c1cc(C2CCCCN2C(=O)c2cccs2)on1 (configuration not stated)	-5	-13	-24	.	.	.	.	3
C=CCOc1ccccc1CNc1cccc(F)c1	-3	5	.	i	-7	3	-6	.
O=C(Cc1ccc(Cl)cc1)N/N=C/c1ccncc1	0	-2	-14	i	-8	-3	-4	-6
O=C(Cc1c(F)cccc1Cl)NNC(=S)Nc1ccc(S(=O)(=O)Nc2ncccn2)cc1	.	.	6	i	13	-16	4	-23
COc1cc(/C=N/O)cc(Br)c1OC	-4	-2	1	i	0	-12	6	-14
Cc1cccc(Cn2cc3c(=O)n(Cc4cccc(F)c4)nc-3c3ccccc32)c1	-3	-2	7	i	-6	-17	-18	-13
COc1ccc(/C=N/n2c(C)cc(C)cc2=O)cc1	-5	-6	-13	i	10	-3	1	.
Cc1occc1C(=O)N1CCN(c2ccc(Cl)cc2)CC1	1	0	-4	.	3	3	-6	-3
CCOC(=O)c1n[nH]c2ccccc12	-1	2	.	i	1	-7	4	-18
CCOC(=O)c1c(C)c(C(=O)N2CCCCCC2)c(C)n1C	-4	1	-10	i	3	0	-2	0
O=C(CSCc1ccccc1)NNC(=S)Nc1cccc(Cl)c1Cl	-3	-2	.	i	4	22	-7	1
C/C=C(\C)C(=O)Nc1cccc(C2=NOC3(C2)C[C@H](C(N)=O)N(C(=O)CC#N)C3)c1 (some centres not stated)	3	3	7	i	-3	3	6	-14
COc1ccc(S(=O)(=O)N2CCOC2CNC(=O)C(=O)NCCCN2CCOCC2)cc1C (configuration not stated)	-4	-1	16	i	9	26	-11	-4
O=C(CCN1CCN(c2ccc([N+](=O)[O-])cc2)CC1)c1ccc(Cl)cc1	-1	4	10	i	9	10	12	-14
Cc1nn(-c2ccccc2)c(C)c1C(=O)OCC(=O)NCc1ccco1	-2	-2	.	.	3	-7	13	-10
CCc1nnc(NC(=O)c2cccc(S(=O)(=O)N3CCc4ccccc43)c2)s1	-2	-2	.	i	-14	-7	-6	.
COc1ccc(-c2ccnc3nc(N4CCOCC4)nn23)cc1	-10	-1	-5	i	-10	8	-1	-13
CN(C)C(=O)c1ccc(NC(=O)COc2cccc3c2OC(C)(C)C3)cc1	0	-5	14	.	.	.	.	-3
Cc1cc(C)c2c(=O)[nH]n(C3CCOC(C)(C)C3)c2n1 (configuration not stated)	-1	0	7	i	-8	-5	9	-9
Cc1cc(=O)n2[nH]c(NCc3c(F)cccc3Cl)nc2n1	9	0	6	i	-8	2	-4	-9
CN(C)C=Nc1nc2ccccc2nc1N1CCCC1	-7	4	-10	i	29	-3	-8	.
CC(C)C(NC(=O)OC(C)(C)C)C(=O)N1CCCC1C(=O)NC(Cc1ccccc1)C(N)=O (configuration not stated)	0	-3	-69	i	0	-5	-11	-8
CC(=O)OC1CCC2(C)C(CCC3C4CC=C(C(C)=O)C4(C)OC(=O)CC32)C1 (configuration not stated)	9	-18	1	.	.	.	.	-14
O=C(CNC(=O)c1cccc(F)c1)OCC(=O)N1CCCCC1	-3	1	-44	i	0	-4	7	.
C=CC[C@H](CC(=O)N(CCO)Cc1ccccc1)C(=O)N[C@H](COC(=O)[C@@H](CC=C)Cc1ccc(F)cc1)Cc1c[nH]c2ccccc12	-10	-21	32	.	.	8	.	-14
O=C(NCCN1CCOCC1)C1CCC(=O)N1Cc1ccc(F)cc1 (configuration not stated)	-1	-1	43	i	-2	-3	-5	4
CC(=O)Nc1ccc(C(=O)COC(=O)CCN2C(=O)C3CC=CCC3C2=O)cc1 (configuration not stated)	-3	5	i	i	-4	-12	-2	-1
Cc1cc(N2CCCCC2)n2ncc(-c3ccc(Cl)cc3)c2n1	-1	3	-289	i	8	84*	0	-31
O=C(Nc1cc(C(=O)N2CCOCC2)ccc1N1CCCC1)c1cccs1	-2	-1	.	i	-3	-22	8	-4
Cc1ccc(N(C(=O)c2ccccn2)C2(C(=O)NC3CCCC3)CCCCC2)cc1	-2	0	44	i	4	-4	-4	-1
CN(C(=O)Nc1ccc(C(C)(C)C)cc1)C1CCCCC1	2	3	-21	i	-3	-4	1	-17
CN(C)Cc1csc(NC(=O)Nc2cccc(Cl)c2)n1	11	0	-28	.	.	.	.	25
CCc1c(C)sc(NC(=O)c2cc(C3CC3)on2)c1C#N	5	0	-18	i	-8	-4	9	-9
CC(C)n1cc(/C=C2\NC(=O)N(c3cccc(Cl)c3)C2=O)c2ccccc21	-40	-18	-88	i	-14	40	-10	-17
CCOc1c2ccc(C(=O)NCc3ccco3)cc2nn1CC	1	0	-1	i	5	-13	4	3
COc1cccc(CC2(CO)CCCN(Cc3ccc(OC)c(C)c3OC)C2)c1 (configuration not stated)	-3	3	33	i	2	11	6	-23
CN(CCCNC(=O)C1CCC(=O)N1Cc1ccc(F)cc1)c1ccccc1 (configuration not stated)	2	0	18	i	-10	-6	-8	-20
CC(C)COc1ccc(C(=O)NNC(=O)CCC(=O)c2cccs2)cc1	-7	-2	.	.	.	-17	.	-18
COc1cc2c(cc1OC)CN(Cc1cc(=O)n3cc(C)ccc3n1)CC2	-2	-1	-43	.	10	-11	-1	4
CC(C)c1ccc(OCC(=O)N2CCN(c3ccccn3)CC2)c(Br)c1	2	-2	.	i	9	-1	-11	-16
CCN1CCCC1CN(Cc1cc2ccc(C)cc2[nH]c1=O)C(=S)Nc1ccc(F)cc1 (configuration not stated)	-1	-4	8	i	-10	-6	-7	.
NC(=O)Cn1c(=O)n(CCC(=O)Nc2ccc(F)cc2)c(=O)c2sccc21	-3	-1	2	i	5	-5	0	-20
Cc1ccc(CNC(=S)N(C)C)cc1	-1	-3	-3	i	3	-17	6	-8
Cc1ccc(C(=O)NNC(=S)NC(=O)c2ccc(Cl)cc2Cl)cc1	7	-2	.	i	27	17	7	.
Cc1ccc(S(=O)(=O)N2CCN(CC(=O)N/N=C/c3ccccc3OCC(=O)O)CC2)cc1	.	.	-14	i	0	-4	-1	.
O=C(NN1C(=O)C2C(c3ccccc3)C=CC(c3ccccc3)C2C1=O)c1ccccc1 (configuration not stated)	-4	0	-6	i	-4	0	0	.
O=[N+]([O-])c1cc([N+](=O)[O-])c(Oc2ccc(F)cc2)cc1NN1CCCCC1	12	7	20	i	-7	-6	22	-4
CCOC(=O)N1CCC(NC(=O)Cc2cn(C)c3ccccc23)CC1	5	2	.	i	3	-6	-3	-18
COc1ccccc1C(=O)Nc1cccc2cccnc12	-4	-8	-7	.	20	28	-2	-12
COc1cc(S(=O)(=O)N2CCCCC2)ccc1NC(=O)c1ccc(F)cc1	10	2	-33	i	-5	0	3	-13
O=C(CCn1c(=O)[nH]c2ccsc2c1=O)N(CCc1ccccc1)Cc1ccccc1	-2	-11	-78	i	-11	-5	2	-4
COc1ccc(C)cc1S(=O)(=O)N(C)CC(=O)N1CCN(c2ccccc2)CC1	1	1	19	i	-8	-17	4	.
O=[N+]([O-])c1ccccc1SNc1ccccn1	2	2	5	i	17	-5	102	.	eIF4H inh retest=20;PABP polyA inh retest=26
Cc1c(NC(=O)CN2C(=O)NC(C)(c3ccccc3)C2=O)c(=O)n(-c2ccccc2)n1C (configuration not stated)	2	3	-14	i	-12	4	-8	.

Structures above that have a furan ring, fused or not, in the order listed:
SMILES	MT1-MMP act inh	MT1-MMP act inh RFP	Env fusion inh	Rce1 inhib	eIF4H inh	CSC inhib	PABP polyA inh	Yeast UUG start	others
Cc1occc1C(=O)N1CCN(c2ccc(Cl)cc2)CC1	1	0	-4	.	3	3	-6	-3
Cc1nn(-c2ccccc2)c(C)c1C(=O)OCC(=O)NCc1ccco1	-2	-2	.	.	3	-7	13	-10
CCOc1c2ccc(C(=O)NCc3ccco3)cc2nn1CC	1	0	-1	i	5	-13	4	3

Looked up one by one from the list above, 2 records:
SMILES	MT1-MMP act inh	MT1-MMP act inh RFP	Env fusion inh	Rce1 inhib	eIF4H inh	CSC inhib	PABP polyA inh	Yeast UUG start	others
C=CC[C@H](CC(=O)N(CCO)Cc1ccccc1)C(=O)N[C@H](COC(=O)[C@@H](CC=C)Cc1ccc(F)cc1)Cc1c[nH]c2ccccc12	-10	-21	32	.	.	8	.	-14
COc1cc(S(=O)(=O)N2CCCCC2)ccc1NC(=O)c1ccc(F)cc1	10	2	-33	i	-5	0	3	-13

Other results
SMILES	MT1-MMP act inh	MT1-MMP act inh RFP	Env fusion inh	Rce1 inhib	eIF4H inh	CSC inhib	PABP polyA inh	Yeast UUG start	others
CC(C)CNC(=S)N1CCC(Cc2ccccc2)CC1	5	-3	14	i	0	12	13	-6
Cc1ccc(C(=O)NC2CCN(C(=O)N3CCOCC3)CC2)cc1	2	8	-67	i	-8	2	-6	-17
CSCCC(NC(=O)c1ccco1)C(=O)N1CCCC(C(F)(F)F)C1 (configuration not stated)	-4	0	4	.	.	-5	.	-16
CC(C)[C@@H]1NC(=O)c2cc([N+](=O)[O-])cc(I)c2OCC[C@@H](C(N)=O)NC(=O)[C@H](CCC(=O)O)NC1=O	4	5	4	i	4	-5	-3	0
CC(C)(C)OC(=O)N1CCCN(C(=O)Nc2ccc(OC(F)(F)F)cc2)CC1	4	-3	34	i	-2	6	-1	-5
CC(C)c1ccc(S(=O)(=O)Nc2ccc(O)c(Sc3ncn[nH]3)c2)cc1	3	-4	2	i	-7	.	4	-16
CCOC(=O)c1cccc(N/C=C/C(=O)c2ccc(OC)c(OC)c2)c1	1	-1	.	i	1	-7	2	-7
CN(C)CCNC(=O)c1ccc2c(=O)n(Cc3ccc(Cl)cc3)c(=S)[nH]c2c1	4	-2	-12	i	-10	46	-12	-15
COc1ccc(NC(=O)CSc2nnc(C3CCCCC3)n2N)cc1OC	3	3	-6	i	6	-1	2	-16
O/N=C/c1ccn(-c2ccc(Br)cc2)c1	3	1	-126	i	-2	17	8	.
Cc1ccc(/C=C(\NC(=O)c2ccccc2)C(=O)NC2CCN(Cc3ccccc3)CC2)o1	0	5	-14	i	2	-1	-6	-10
Nc1ccc(Br)c[n+]1Cc1cccc2cccnc12	-3	-10	7	i	7	6	4	-7
Cc1ccc(/C=C2\SC(=S)N(CCC(=O)N3CCCCC3)C2=O)cc1	-2	2	-10	i	-3	.	2	-12
Cc1cc(C)nc(Nc2cccc(C(F)(F)F)c2)n1	-1	-2	5	i	0	-9	8	-22
CCOC(=O)[C@H]1[C@H]2COc3ccc(C)cc3[C@@H]2N2C(=O)CN(Cc3ccco3)C(=O)[C@@]12C	-5	-2	-33	.	.	-24	.	-15
O=C(/C=C/c1ccco1)NCC(=O)N/N=C/c1ccc([N+](=O)[O-])cc1	2	1	-27	i	33	.	10	.

Outcome played no part in choosing rows. Share with any hit: about 2.9%.
